MenB inh – blocks the Mycobacterium tuberculosis MenB enzyme; P9WNP5; MenB enzyme assay, absorbance read-out; some hits fall short of the stated cut; inhibition, %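 (about 12 µg/mL by stock and volumes)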; 100,000 tested, 0.43% active; AID 540299;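 active = mean of two replicates above 30%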;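 note: 0% = no compound and 100% = wells with inactive enzyme; the first replicate is given; strong numbers were not always called active; inactives centre near -10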
Target sequence (P9WNP5 whole entry, looked up): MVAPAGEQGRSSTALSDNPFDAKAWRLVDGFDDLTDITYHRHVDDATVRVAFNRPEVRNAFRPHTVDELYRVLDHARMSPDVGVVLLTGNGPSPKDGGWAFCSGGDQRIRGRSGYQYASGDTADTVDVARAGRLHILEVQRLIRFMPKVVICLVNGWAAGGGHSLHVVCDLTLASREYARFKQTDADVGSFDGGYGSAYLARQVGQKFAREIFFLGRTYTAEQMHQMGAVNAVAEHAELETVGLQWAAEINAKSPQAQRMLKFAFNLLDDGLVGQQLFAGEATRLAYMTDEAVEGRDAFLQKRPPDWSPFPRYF
MbtI inh – MbtI salicylate synthase inhibition; P9WFX0; purified MbtI enzyme, fluorescence intensity read-out; 100,000 tested, 0.89% active; inhibition, %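 (about 17 µg/mL by stock and volumes)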;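 active = above 50% in both replicates, above 80% if mildly self-fluorescent; inactive = the rest, strongly fluorescent compounds included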;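 note: 0% = mean of negative and 100% = mean of positive controls; one replicate is shown; some compounds called inactive have numbers as strong as hits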
PV pol inh – inhibitors of poliovirus RNA polymerase binding and polymerization. 150,000 tested, 0.66% active. % elongation, % (compound at 16.7 µg/mL). poliovirus polymerase elongation, fluorescence polarization; active compounds read low; in the data active = % elongation below about 90%; note: some results filed as inactive read as strong as hits
Target sequence (P03300 1749-2209 limits assumed): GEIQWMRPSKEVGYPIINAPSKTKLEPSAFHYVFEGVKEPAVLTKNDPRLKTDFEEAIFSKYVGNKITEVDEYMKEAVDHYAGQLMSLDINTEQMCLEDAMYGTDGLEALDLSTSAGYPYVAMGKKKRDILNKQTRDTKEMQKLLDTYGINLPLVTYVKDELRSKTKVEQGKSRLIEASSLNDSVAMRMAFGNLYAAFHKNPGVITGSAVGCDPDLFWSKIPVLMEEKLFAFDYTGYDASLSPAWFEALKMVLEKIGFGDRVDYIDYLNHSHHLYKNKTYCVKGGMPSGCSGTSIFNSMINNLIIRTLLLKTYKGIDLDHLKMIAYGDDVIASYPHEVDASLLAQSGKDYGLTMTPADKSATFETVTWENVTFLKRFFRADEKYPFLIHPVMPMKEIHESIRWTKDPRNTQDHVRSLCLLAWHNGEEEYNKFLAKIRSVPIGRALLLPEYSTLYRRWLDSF
PV pol inh intensity – further read-out of PV pol inh, marked with its call; % elongation; measured here: total intensity read-out; formula for this scale not given here;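 total fluorescence in place of polarization; lower means less elongation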
Numbers without * were called inactive; i = inactive; · = not tested or not shown.

Values run as follows: MenB inh, MbtI inh, PV pol inh, PV pol inh intensity
COC(=O)c1cnc(N2CCCN(C(=O)C3COc4ccccc4O3)CC2)nc1C(F)(F)F (configuration not stated)
→ -10, 6, 104, 99
COCCNC(=O)c1nnc(Cc2ccc(C)cc2)o1
→ -29, -5, 101, 103
CC1(CC(=O)N/N=C/c2cccc(Br)c2)OCCO1
→ 6, 10, 98, 99
C=CCN1CC(O)=C(c2nc3ccccc3s2)C1=N
→ 6, -116, 98, 100
CCN(C(=O)CN1C(=O)N(c2ccc(C)c(Cl)c2)S(=O)(=O)c2ccccc21)c1ccccc1
→ -52, 4, 104, 109
O=C1Cc2ccccc2C(=O)N1c1cccc(C(F)(F)F)c1
→ 8, 9, 93, 100
Cc1c(C(=O)N(Cc2ccc(N(C)C)cc2)Cc2ccco2)oc2ccccc12
→ 12, 0, 101, 105
COc1ccc(OC)c(S(=O)(=O)N2CCCC2C(=O)N2CCc3ccccc3C2)c1 (configuration not stated)
→ -50, -4, 107, 101
COc1ccc(C(=O)c2c(O)nc3ccccn3c2=O)cc1
→ -31, i, 102, 105
Cc1cc2oc(=O)cc(COC(=O)c3ccccn3)c2cc1C
→ -19, -1, 101, 103
Cc1ccc(C(=O)Nc2ccccc2C)cc1
→ 11, 5, 100, 102
CC1=NN(c2ccccc2)C(=O)C1CCC#N (configuration not stated)
→ 10, 7, 101, 102
NC(=O)NC1CCCCC1
→ -13, -2, 102, 103
Cc1cc(C)c2c(-n3cccc3)c(C(=O)NCc3cccnc3)sc2n1
→ 8, 15, 102, 103
CC(=O)N1CCc2cc(NC(=O)NC34CC5CC(CC(C5)C3)C4)ccc21
→ -14, -6, 103, 103
COc1cccc(C(=O)Nc2cccc(-c3ccc4nncn4n3)c2)c1OC
→ -13, 7, 104, 102
CC(c1ccco1)N(C(=O)c1cccs1)c1ccccn1 (configuration not stated)
→ ·, -5, 102, 102
CCCCN(C(=O)c1ccc2c(c1)OCO2)c1ccccc1
→ -8, -4, 100, 101
COCCN1C(=O)c2oc3ccccc3c(=O)c2C12C(=O)N(C)c1ccccc12 (configuration not stated)
→ 15, 2, 100, 98
CCN(CC)C(=O)n1cnc(-c2ccccc2)c1-c1ccccc1
→ -12, -37, 100, 102
CCN1CCC(NC2C3CC4CC(C3)CC2C4)CC1 (configuration not stated)
→ -23, 2, 101, 102
CCS(=O)(=O)c1nc(S(=O)(=O)c2ccc(Cl)cc2)c(NCCN2CCOCC2)s1
→ -22, -6, 105, 106
O=C1C(=Nc2cccc(C(F)(F)F)c2)c2ccccc2N1CN1CCc2ccccc2C1
→ -8, ·, 103, 114
CNc1nc2ccccc2[nH]1
→ ·, -9, 103, 103
O=C(O)c1ccc(-n2nnnc2Oc2ccccc2C(=O)N2CCOCC2)cc1
→ 11, 1, 103, 99
Cc1ncc(CO)c(/C=N/N=C/c2ccc(Cl)cc2)c1O
→ -5, -20, 98, 103
O=C(Cn1cc2c(n1)CCCCC2)Nc1ccccc1Br
→ -23, -9, 100, 102
O=S(=O)(c1cc(Cl)ccc1Cl)N1CCCCC1
→ 5, -13, 108, 114
CC(C)OC(=O)Cn1nc(C(F)(F)F)c2c1CCCC2
→ 7, -6, 101, 103
CCC(=O)Nc1ccc(-c2cc3ccccc3oc2=O)cc1
→ 6, ·, 99, 101
COc1ccc(C(=O)OC2C[C@H]3CC[C@@H](C2)N3C)cc1OC (some centres not stated)
→ -7, -27, 101, 103
CNC(=O)c1cccc(S(=O)(=O)N2CC(C)CC(C)C2)c1 (configuration not stated)
→ ·, -7, 100, 99
Cc1cc(=O)n2nc(NC(C)C(=O)NCCCc3ccccc3)sc2n1 (configuration not stated)
→ 0, -10, 103, 103
CCOc1nc(NCCN2CCOCC2)nc(NC(C)C)n1
→ 14, -4, 103, 103
O=C(CSC1=N/C(=C/c2ccco2)C(=O)N1c1ccccc1)Nc1nc2ccccc2s1
→ -72, 22, 112, 137
COc1ccc(S(=O)(=O)N2CN(Cc3ccccc3)c3nc4ccccc4nc32)cc1
→ -29, -4, ·, ·
CN(CC(=O)N1CCCC1)S(=O)(=O)c1ccc(F)cc1
→ -23, -11, 104, 101
COc1ccc(CCn2c(C)cc(O)cc2=O)cc1OC
→ -112, 0, 100, 99
Cc1ccc(N(CC(=O)c2ccccc2)CC(=O)c2ccc(Cl)cc2)cc1
→ -25, ·, 100, 93
CCOC(=O)c1cc2sccc2n1CC(=O)c1ccc2c(c1)OCCO2
→ 31, 13, 105, 101
O=C(CSc1nccc(=O)[nH]1)Nc1ccccc1Br
→ -35, 10, 100, 103
O=c1[nH]c(=O)n(-c2ccc(Cl)cc2)c(O)c1/C=N/n1cnnc1
→ -42, 25, 114, 119
CS(=O)(=O)N1CCc2cc(C(=O)CSc3nc4ccccc4o3)ccc21
→ -19, 10, 107, 117
CC(C)CN=CC1=C(O)CC(C)(C)CC1=O
→ -14, 2, 105, 106
CN(C)CCCNC1CS(=O)(=O)CC1O (configuration not stated)
→ -28, -11, 107, 98

Not a retest: 2 of the compounds above.
Values run as follows: MenB inh, MbtI inh, PV pol inh, PV pol inh intensity
COc1ccc(S(=O)(=O)N2CN(Cc3ccccc3)c3nc4ccccc4nc32)cc1
→ -29, -4, ·, ·
CN(CC(=O)N1CCCC1)S(=O)(=O)c1ccc(F)cc1
→ -23, -11, 104, 101

Following part
Values run as follows: MenB inh, MbtI inh, PV pol inh, PV pol inh intensity
COCc1cc(C)nc(Cl)c1C#N
→ -5, -5, 101, 104
N#Cc1c(N)[nH]c(=S)c(C(N)=O)c1-c1cccc(Br)c1
→ -31, ·, 97, 91
CNC(=O)N(Cc1cccnc1)Cc1ccccc1Cl
→ 3, ·, 109, 111
Cc1cccc(-n2c(SCCC#N)nnc2-c2ccc(Cl)cc2)c1
→ -11, -15, 111, 122
Cc1cc(=O)n(C)c(=O)n1CCCCCN1CCCC1
→ -23, 6, 102, 101
CC(C)OC(=O)c1cccc(C(=O)OC(C)C)n1
→ -7, -50, 99, 99
O=C(O)CCc1nnc2ccc(NCCCN3CCCC3=O)nn12
→ -9, 4, 101, 102
Cc1cc(C)nc(N/N=C/C2=C(N3CCOCC3)C(=C\c3ccccc3)/CC2)n1
→ -58, 36, 107, 107
CCCN1CCC(NC(=O)Cc2ccc(C)cc2)CC1
→ 9, 5, 103, 102
COc1ccc(NC(=O)C(C)Sc2ccccc2)cc1 (configuration not stated)
→ -3, -5, 99, 103
OC(CSc1nncn1-c1ccccc1)C(O)C(O)c1cnn(-c2ccccc2)n1 (configuration not stated)
→ 2, 14, 104, 96
O=C1C2C(C(=O)N1CC1CCCO1)C1C=CC2C12CC2 (configuration not stated)
→ 10, -5, 102, 104
Cc1cc(C(=O)CSc2nn3c(=O)c(C(C)(C)C)nnc3s2)c(C)n1C1CC1
→ -26, 17, ·, ·
Cc1cccc2nc(=S)n(C(=O)c3ccc(F)cc3)n12
→ 0, ·, 74*, 76*
O=C(Nc1sc2c(c1C(=O)O)CCC2)c1cccnc1
→ -16, -20, 103, 102
Cc1cc(S(=O)(=O)NC2CCCCC2)ccc1OCC(=O)NCc1cccnc1
→ 6, 6, 102, 101
O=C(c1cnc2sccn2c1=O)N1CCN(c2ccccc2)CC1
→ 4, 6, 100, 105
O=C(O)CCCCN1C(=O)c2ccccc2C1=O
→ -15, 7, 106, 107
NCC1CCCN(Cc2ccccc2)C1 (configuration not stated)
→ -56, -6, 102, 102
Cc1ccccc1OCCn1c(C2CCCO2)nc2ccccc21 (configuration not stated)
→ -13, 1, 100, 102
Cc1cc(C)n2nc(C(=O)O)nc2n1
→ 25, 0, 102, 100
O=C(O)c1cc(N=Cc2ccccc2O)ccc1O
→ -9, ·, 99, 93
NCc1oc(-c2ccccc2)cc1C(=O)O
→ -51, 17, 106, 101
O=C(OCc1cn2ccccc2n1)c1ccc2c(c1)C(=O)N(Cc1ccco1)C2=O
→ 2, -8, 94, 100
CCc1ccc(N2CC(c3nc4ccccc4[nH]3)CC2=O)cc1 (configuration not stated)
→ -33, 1, 100, 100
CN(C1CCCCC1)S(=O)(=O)c1ccc(-c2cc(C(F)(F)F)no2)s1
→ -14, -9, 101, 103
CCCNC(=O)c1ccc(N2CC3CC(C2)c2cccc(=O)n2C3)c(NC(=O)Nc2ccc(Cl)cc2)c1 (configuration not stated)
→ -17, -6, 99, 101
COc1ccccc1NC(=O)C1CC1(c1ccc(C)cc1)c1ccc(C)cc1 (configuration not stated)
→ -27, ·, 97, 99
OCCn1ncc2c(SC3CCCCC3)ncnc21
→ 0, 8, 101, 102
Cc1cc(NC(C)C)n2nc(-c3ccccc3)nc2n1
→ 9, 26, 102, 102
COc1ccc(C(CN=Cc2c(O)[nH]c(=S)[nH]c2=O)N(C)C)cc1 (configuration not stated)
→ -2, 14, 100, 99
O=C(c1ccc2c(c1)N(Cc1ccccc1)CCS2)N1CCOCC1
→ -13, -38, 102, 101
CCN(CC)C(=O)c1ccc(NC(=O)c2ccccc2)cc1
→ 7, -2, 99, 102
CC1(C)COC(Nc2cccc(Cl)c2)=N1
→ 3, 3, 104, 99
CCOC(=O)c1c(C)[nH]c(C)c1C(=O)CC#N
→ ·, -3, 99, 103
CSc1nn(-c2ccccc2)cc1-c1noc(-c2ccc(C(F)(F)F)cc2)n1
→ -10, -5, 102, 103
CCOC(=O)N1CCN=C1SCc1cc(C)ccc1C
→ -29, -6, 104, 108
NS(=O)(=O)c1ccc(CCNC2=CC(=O)OC23CCCCC3)cc1
→ -25, -8, 105, 103
Cc1nn(-c2ccccc2)c2sc(C(=O)N=Nc3c(O)[nH]c4ccccc34)cc12
→ -17, -21, 102, 106
C[C@H](NC(N)=O)C(=O)NC1CCCc2ccccc21 (some centres not stated)
→ -4, -1, 106, 119
CC(C)(C)C(=O)Nc1ccccc1C(=O)N1CCN(Cc2ccccc2)CC1
→ 4, ·, 102, 109
Cc1cc(-c2ccccc2)nc2cc(C(=O)N3CCCCCC3)nn12
→ -20, 16, 100, 101
CCc1ccc2c(CCl)cc(=O)oc2c1
→ ·, 4, 101, 101
COc1ccccc1NC(=O)C(C)n1nc(C(=O)O)c2ccccc2c1=O (configuration not stated)
→ 3, 6, 100, 104
CN(C)/C=C/C(=O)c1sc(SCc2ccc(Cl)cc2)c2c1CC(C)(C)CC2=O
→ -22, 0, 109, 113

In the list so far, 4 contain bromine.
Values run as follows: MenB inh, MbtI inh, PV pol inh, PV pol inh intensity
CC1(CC(=O)N/N=C/c2cccc(Br)c2)OCCO1
→ 6, 10, 98, 99
O=C(Cn1cc2c(n1)CCCCC2)Nc1ccccc1Br
→ -23, -9, 100, 102
O=C(CSc1nccc(=O)[nH]1)Nc1ccccc1Br
→ -35, 10, 100, 103
N#Cc1c(N)[nH]c(=S)c(C(N)=O)c1-c1cccc(Br)c1
→ -31, ·, 97, 91

Other structures
Values run as follows: MenB inh, MbtI inh, PV pol inh, PV pol inh intensity
O=C(Nc1ccc2[nH]c(=O)[nH]c2c1)c1ccccc1Br
→ 19, 7, 103, 101
CC(C)N(C(=O)CN1CCN(Cc2ccccc2)CC1)C(C)C
→ -51, -3, 105, 101
CSc1nc(-c2ccccc2)cc(-c2cccs2)c1C#N
→ -46, 49, 99, 100
CC(C)(C)NS(=O)(=O)c1ccc(N2C(=O)CCC2=O)cc1
→ 2, -18, 100, 104
C=CCn1c(C)cc(C(=O)CSc2nnc3ccccn23)c1C
→ ·, -2, 103, 104
Cc1cc(C)nc(NS(=O)(=O)c2ccc(NC(=S)NC(=O)/C=C/c3ccco3)cc2)n1
→ 13, 19, 102, 104
CCN(C(=O)c1cc2c(=O)n3ccccc3nc2n1C)C1CCCCC1
→ -17, 22, 104, 109
COc1ccc(S(=O)(=O)N2CCN(C(c3ccc(OC)c(OC)c3)c3nnnn3C3CCCCC3)CC2)cc1 (configuration not stated)
→ 28, -25, 101, 109
COC(CNC(=O)C1CCCN1C(=O)OCc1ccccc1)OC (configuration not stated)
→ -26, -6, 101, 100
CC(C#N)OC(=O)c1ccc(S(=O)(=O)N(C)C)cc1 (configuration not stated)
→ 6, 8, 102, 95
COc1cc(/C=c2\sc3nc4cc(C)c(C)cc4n3c2=O)c(Br)cc1OCC(=O)O
→ -29, 8, 102, 110
O=C(CCCOc1ccccc1)N1CCN(Cc2ccc3c(c2)OCO3)CC1
→ -10, -25, 106, 110
O=C(COC(=O)c1ccccc1NC(=O)c1ccco1)c1ccccc1
→ -18, -9, 101, 107
CC1(C)CC(NCC(O)COCc2ccco2)CC(C)(C)N1 (configuration not stated)
→ -14, -2, 95, 100
Cn1nc(-c2ccc(F)cc2)nc2c(=O)n(C)c(=O)nc1-2
→ -17, 31, 36*, 69*
CCCc1nc2ccccc2c(C(=O)OCC#N)c1CC
→ -36, 3, 99, 97
Cc1cc(C)c(C)c(C(=O)COC(=O)c2cc(=O)[nH]c3ccccc23)c1C
→ -19, 3, 104, 97

Screening results (PubChem BioAssay)

Not a hit list; overall some 1.7% were active at least once.
